# Screens from PubChem BioAssay.
# BJeLR lethal = BJeLR cell viability loss | BJeLR (HRASV12) viability, CellTiter-Glo ATP luminescence, 48 h; reference of the scale not given here | inhibition, % (concentration not given with the values) | 300,000 compounds, 0.17% hits;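 active means replicate mean above 50%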;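 further: 50 nL library stock added to about 25 µL; numbers are from one replicate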
# Sa RN4220 lethal = kills Staphylococcus aureus RN4220 | 330,000 compounds, 0.33% hits | inhibition, % (concentration not given with the values) | AID 1259311 | S. aureus RN4220 growth, OD600, 16 h;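 active means z-score of -3 or lower and OD600 up to 0.18 on both plates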;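 further: plate controls were untreated cells for no effect and reference antibiotic for full effect; stock transfer was 100 nL into about 80 µL; one replicate is shown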
# PrP UTR inh = suppresses PrP 5' UTR mRNA reporter expression; cell-based PrP 5' UTR mRNA reporter, plate reader; inhibition, % (concentration not given with the values); 340,000 compounds, 0.35% hits; AID 488862;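 active means every replicate at 50% or more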;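 further: 0 = median of the neutral control wells; tested in H4 reporter cells; numbers are from one replicate; inactives centre near -14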
# Mtb hypoxia inh = Mtb hypoxia fluorescent reporter inhibition. 300,000 compounds, 0.1% hits. fluorescence inhibition, % (no concentration beside the values). M. tuberculosis hypoxia-regulated fluorescent reporter, fluorescence;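 active means 35 to 45% if threefold the growth effect, above 45% if 1.5-fold the growth effect; inactive means the rest, general growth blockers included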;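 further: wells of about 50 µL received 100 nL stock; 0% = vehicle wells and 100% = reference inhibitor wells; whole bacteria with a GFP reporter of the hypoxia response; strong numbers were not always called active; many hits fall short of the cut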
# Autofluor counter = counter-screen for toxin protease inhibitors: compound fluorescence. fluorescence intensity (test concentration not listed). compound autofluorescence counterscreen, microsphere flow cytometry; active compounds read high. AID 624483. 360,000 compounds, 3.1% hits;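 active means at least 3 SD above the mean of all compounds, about 16000 in these data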;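 further: 100 nL of 1 mM stock went into each well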
# Sa ugtP lethal = growth inhibition of S. aureus ugtP deletion strain; S. aureus RN4220 ugtP deletion, OD600 growth, 16 h; some inactives read as strong as hits; growth inhibition, % (no concentration beside the values); 330,000 compounds, 0.54% hits;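 active means z-score under -3 and OD600 up to 0.15 on both plates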;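 further: plate controls were untreated wells for no effect and antibiotic for full effect; wells of about 80 µL received 100 nL stock; the first replicate is given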
# Mtb hypoxia inh growth = also measured in Mtb hypoxia inh; calls as there; growth inhibition, %; measured here: M. tuberculosis growth (absorbance);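 0% = vehicle and 100% = reference antibiotic; read after six days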
# An asterisk follows results filed as active; x = not tested or not shown.
SMILES,BJeLR lethal,Sa RN4220 lethal,PrP UTR inh,Mtb hypoxia inh,Mtb hypoxia inh growth,Autofluor counter,Sa ugtP lethal
CCOc1ccc(C)cc1S(=O)(=O)n1ccnc1,-6,1.4,-8,x,x,3960,1
O=C(Cc1n[nH]c(=O)[nH]c1=O)NN=Cc1cccc(O)c1,x,-0.4,x,-2,4,x,-3
CCN(CC)CCN1C(=O)C2C(C(=O)Nc3ccc(Br)cc3)C3C=CC2(O3)C1C(=O)NC1CCCCC1 (stereo unspecified),7,3.4,-31,3,-10,3709,1
O=C(NCCSc1c(-c2ccccc2)[nH]c2ccccc12)c1cc2ccccc2oc1=O,6,11,-15,3,-2,5524,24
O=C(Nc1c(Cl)cc(Cl)cc1-c1nc2ccccc2s1)c1ccc(Br)o1,-6,14,-14,13,-1,17431*,-11
Cc1cc(C)c2nc(-c3ccccn3)cc(C(=O)Nc3ccc(S(=O)(=O)Nc4cc(C)on4)cc3)c2c1,-4,1.7,-7,6,7,16205*,7
CNC(=O)c1ccc(NC(=O)C2CCN(c3ncnc4sc(C)c(C)c34)CC2)cc1,-1,-0.5,-3,3,2,6085,-1
O=C(CN1CCN(Cc2ccc(F)cc2Cl)C1=O)NCCc1ccc(Cl)cc1,0,6.5,-6,10,8,9035,-8
COc1ccccc1-c1cc(C(=O)Nc2ccccc2SC)no1,13,1.9,-32,6,6,8096,9
Cc1ccccc1NC(=O)c1ccco1,-9,5.4,-5,-8,4,2952,17
CC1CCCN(C(=O)C23CCC(C)(C(=O)C2)C3(C)C)C1 (stereo unspecified),-1,-0.9,-20,17,4,7357,8
CC/C(=N\NC(=O)CSc1ncccn1)c1ccc2c(c1)OCCO2,1,x,-27,x,x,1908,x
Cn1c2ccccc2c2c(C(=O)NCC3CCCO3)cn(C3CCCC3)c(=O)c21 (stereo unspecified),-10,-0.3,-9,x,x,4762,-1
CCNC(=O)c1cccc(NC(=O)c2cc(C3CC3)nc3c2cnn3C(C)C)c1,x,0.2,-18,9,19,6274,-8
CCN1CCN(CCCNC(=O)c2cc3c(=O)[nH]c4ccccc4c3s2)CC1,1,2.8,12,1,-4,9887,3
O=C(/C=C/c1ccco1)NC(=S)Nc1cccc(-c2nc3ccccc3s2)c1,9,0.5,-65,x,x,4606,37
CN(c1ccc(OCC(=O)N2CCOCC2)cc1)S(=O)(=O)c1ccc(Cl)cc1,10,9.1,-9,5,-3,3500,4
CS(=O)(=O)c1ccc(C(=O)Nc2nc(-c3ccco3)c(-c3ccco3)s2)cc1,x,-1.6,0,-6,1,5345,4
CC1CCCN(C(=O)COC(=O)CNC(=O)c2sc3ccccc3c2Cl)C1 (stereo unspecified),x,4.4,-21,8,3,8477,2
COc1cc(CCNc2ccc3nnc(-c4ccccc4)n3n2)cc(OC)c1OC,-2,3.5,-19,2,2,4403,9
Cc1ccccc1-n1c(-c2ccc([N+](=O)[O-])cc2)nc2ccccc2c1=O,14,2.0,-4,1,6,2428,0
CCOC(=O)C1(CCOc2ccccc2)CCN(C(=O)c2cncs2)CC1,-3,1.5,-8,-2,0,1996,1
O=C(O)C(CCc1ccccn1)c1ccccc1 (stereo unspecified),x,4.4,-10,16,7,3231,7
Cc1ccnc(N=Cc2c(O)ccc3oc4c(c23)CCCC4)c1,x,1.3,x,-3,7,x,3
Cc1cccc(NC(=O)CC2C(=O)NCCN2C(=O)Nc2ccc(Cl)cc2)c1 (stereo unspecified),-9,-15,-39,7,0,5259,-11
C/C=C/C=C\C(=O)Nc1cccc(C2=NOC3(C2)C[C@@H](C(N)=O)N(C(=O)c2cc([N+](=O)[O-])cc([N+](=O)[O-])c2C)C3)c1 (stereo partly specified),-16,x,-14,x,x,3568,x
COc1ccc(CCNC(=O)Cc2c(Cl)cccc2Cl)cc1,0,11,-14,-7,-3,4787,-7
O=C(CSc1nc2ccccc2s1)N1c2ccccc2Sc2ccc(C(F)(F)F)cc21,-2,2.9,6,2,1,4359,5
COc1ccccc1CNC(=O)C1CCC(CNS(=O)(=O)c2ccccc2)CC1 (stereo unspecified),0,1.3,-20,5,2,3337,9
CCOC(=O)CSC1=C(C#N)C(c2ccccc2F)C(C(C)=O)=C(C)N1 (stereo unspecified),-3,7.1,-16,4,11,5249,-6
COc1ccc(N2C(=O)CC(c3ccc(OC(C)C)cc3)C2=O)cc1 (stereo unspecified),2,4.2,-10,5,8,4297,9
Cc1nnc(SCC(=O)Nc2nsc(-c3ccc(Cl)cc3)n2)s1,-4,1.1,-23,4,5,8718,4
CC[N+]1(C)CCC(=C2c3ccccc3CC(=O)c3sccc32)CC1 (stereo unspecified),4,1.2,-15,-6,19,5715,-2
CC(CCc1ccco1)NC(=O)CSc1cc(=O)n(C)c2ccccc12 (stereo unspecified),-3,-2.9,-20,6,13,4558,3
CC(c1ccc(Cl)cc1)n1c(-c2ccc3ccccc3n2)n[nH]c1=S (stereo unspecified),1,0.9,-4,-1,-4,6252,27
CCC/C(C)=N/NC(=O)c1ccccc1O,3,x,-11,x,x,2532,x
CCc1nc2oc3ccccc3c(=O)c2c(=O)n1-c1ccccc1,x,0.4,-25,-1,3,16529*,-33
COc1ccc(NC(=O)Cn2nnc(-c3ccccc3NC(=O)C3CC3)n2)cc1,3,-14,-23,4,-1,2363,0
O=C(c1cnn(-c2ccccc2)c1)c1ccccc1O,2,6.9,-74,2,1,2052,-5
CCOC(=O)c1c(NC(=O)CSc2nnc(C)c(=O)[nH]2)sc2c1CCCC2,-8,5.7,-7,4,13,3863,10
CCc1ccc(OCCNC(=O)c2ccccc2SCc2ccccc2)cc1,2,6.3,-23,-5,16,2300,8
C=CCn1c(O)c(C2=c3ccccc3=NC2=O)s/c1=N/c1nccs1,-7,x,-28,x,x,5113,x
CN(Cc1cccs1)C(=O)CCNS(=O)(=O)c1ccc(Br)cc1,x,5.3,-20,11,-2,3620,3
O=C(NC1CCCCC1)N1CCSC1=Nc1ccccc1,8,2.3,-21,3,11,10394,13
CCCn1c(=S)[nH]c2cc(C(=O)N(CCO)Cc3ccccc3)ccc2c1=O,-5,-0.6,-8,5,5,5959,5
NS(=O)(=O)c1ccc(CCNc2ccc(C(F)(F)F)cn2)cc1,16,-0.4,-11,5,-6,3700,3
CCCCCC1CC(CCC(C)=NNC(N)=O)C(=O)O1 (stereo unspecified),x,6.3,x,x,x,x,15
COc1ccc(C(=O)O)cc1NCc1cccnc1,-4,-0.2,-13,3,13,4022,3
Brc1ccsc1/C=N/Nc1ccccc1,-4,x,-46,x,x,5569,x
O=C(CSc1nncs1)Nc1ccc2c(c1)OCO2,12,5.1,-41,7,12,3143,5

# The results go on:
SMILES,BJeLR lethal,Sa RN4220 lethal,PrP UTR inh,Mtb hypoxia inh,Mtb hypoxia inh growth,Autofluor counter,Sa ugtP lethal
Cc1cccc(-n2c(Cc3cc(=O)[nH]c(=O)[nH]3)nnc2SCC(=O)Nc2cccc(C(F)(F)F)c2)c1,-4,-4.8,-27,-6,9,2069,12
S=C(Nc1cccc(Cl)c1)NC1CC2CCCC(C1)N2C1CCCC1 (stereo unspecified),5,-4.1,-19,-19,-10,2761,-2
COc1ccccc1NC(=O)C(=O)N1CCCC1,-3,0.5,-14,1,10,4370,-5
FC(F)(F)COc1nc(N2CCCCC2)nc(N2CCNCC2)n1,7,3.6,-39,x,x,2447,-9
CCn1c(SCC(=O)N2CCCc3ccccc32)nc2c(c1=O)SC(C)C2 (stereo unspecified),x,-8.3,-15,4,13,5983,-1
COc1cc(/C=N/NP(=S)(c2ccccc2)c2ccccc2)ccc1O,16,x,-20,x,x,2431,x
C/C(=N/NS(=O)(=O)c1ccc(Br)cc1)c1ccc(NC(=O)c2ccc(C)o2)cc1,-6,x,-30,x,x,3796,x
Nn1cnnc1NN=Cc1ccc(F)cc1,x,0.2,x,-2,-6,x,-5
CCCCCCCC(=O)OCC(O)CO (stereo unspecified),16,x,-6,x,x,6233,x
CC(=O)Nc1nc2n(n1)C(c1ccc(F)cc1)C=C(c1ccccc1)N2 (stereo unspecified),-11,-6.8,-9,0,4,x,-3
Cc1cc(C)n(-c2ccc(-n3ccnc3)nn2)n1,1,1.9,4,5,7,11500,1
Clc1ccc(Nc2nc3cccnc3s2)cc1,6,x,-140,x,x,4377,x
CN1C(=O)C(Cc2cccs2)C(=O)N(C)C1=O,-4,4.5,-27,6,3,8151,3
Cc1cccc(NC(=O)Nc2c(C)[nH]c(=O)[nH]c2=O)c1C,2,-2.0,-25,1,0,4115,1
CCc1ccc(OCC(=O)OC2CCS(=O)(=O)C2)cc1 (stereo unspecified),7,3.3,-24,8,3,8033,5
O=C(CCSc1nc(-c2ccc3c(c2)OCO3)cc(C(F)(F)F)n1)NCc1ccccc1,1,-0.1,3,x,x,3434,17
CCCCN(C(=O)CSCc1ccc(C)cc1)c1c(N)n(Cc2ccccc2)c(=O)[nH]c1=O,x,0.2,-17,3,2,4867,18
CN(C)CCO/N=C(\c1ccc(Br)cc1)c1cccnc1,-9,x,-8,x,x,21777*,x
O=C(Nc1ccccc1F)OC1CN2CCC1CC2 (stereo unspecified),-6,0.8,2,4,4,x,1
CCOC(=O)C1(Cc2cccc(F)c2)CCN(Cc2ccc(COC)o2)CC1,-1,-2.4,-15,-4,-1,4049,-6

# Profiles, quoted from the list.
# Listed for CCc1ccc(OCC(=O)OC2CCS(=O)(=O)C2)cc1 (stereo unspecified) : BJeLR lethal = 7; Sa RN4220 lethal = 3.3; PrP UTR inh = -24; Mtb hypoxia inh = 8; Mtb hypoxia inh growth = 3; Autofluor counter = 8033; Sa ugtP lethal = 5
# Listed for CCN1CCN(CCCNC(=O)c2cc3c(=O)[nH]c4ccccc4c3s2)CC1 : BJeLR lethal = 1; Sa RN4220 lethal = 2.8; PrP UTR inh = 12; Mtb hypoxia inh = 1; Mtb hypoxia inh growth = -4; Autofluor counter = 9887; Sa ugtP lethal = 3

# In another format: results already given.
# Screens in order – BJeLR lethal	Sa RN4220 lethal	PrP UTR inh	Mtb hypoxia inh	Mtb hypoxia inh growth	Autofluor counter	Sa ugtP lethal
> Cc1cccc(NC(=O)Nc2c(C)[nH]c(=O)[nH]c2=O)c1C
→ 2	-2.0	-25	1	0	4115	1
> CCc1ccc(OCC(=O)OC2CCS(=O)(=O)C2)cc1 (stereo unspecified)
→ 7	3.3	-24	8	3	8033	5
> O=C(CCSc1nc(-c2ccc3c(c2)OCO3)cc(C(F)(F)F)n1)NCc1ccccc1
→ 1	-0.1	3	x	x	3434	17

# Additional results.
SMILES,BJeLR lethal,Sa RN4220 lethal,PrP UTR inh,Mtb hypoxia inh,Mtb hypoxia inh growth,Autofluor counter,Sa ugtP lethal
C=CCC1(NC(C)c2ccccc2)CCCCC1 (stereo unspecified),3,2.4,-14,1,4,2022,5
Cc1cccc(CN2C[C@]34CCC(CC3S2(=O)=O)O4)c1 (stereo partly specified),x,2.8,x,1,8,x,0
COc1ccccc1NC(=O)C1CCCCC1,-3,1.1,-19,x,x,4274,4
COc1ccccc1NC(=O)c1ccc(-n2cccn2)nc1,16,3.6,-10,8,8,22967*,-7
COc1ccc(N2C(=O)CSC2c2ccc([N+](=O)[O-])cc2)cc1 (stereo unspecified),4,2.2,-21,9,-10,3857,8
CC(C)c1ccc(NC2CCCN(C(=O)c3cc(C(C)C)[nH]n3)C2)cc1 (stereo unspecified),-1,4.0,2,4,13,5870,0
Cc1ccc(NC(=O)c2nc[nH]c2C(=O)NCC(=O)OC(C)(C)C)cc1,3,7.5,-12,6,4,4358,12
c1ccc2c(c1)oc1c(NCc3ccc4c(c3)OCO4)ncnc12,5,-12,-1,18,6,3273,-9
Cc1cccc(NC(=S)NN2CCN(C)CC2)c1C,-5,-1.4,-26,x,x,2438,-1
Cn1nnnc1SCC(=O)NCc1cccc(C(=O)O)c1,8,6.8,-20,3,14,20029*,-15
Cc1ccc(C)c(OCc2cc(C(=O)N(C)Cc3nccn3C)no2)c1,0,x,-5,x,x,5258,x
O=C(CSc1nc(-c2ccc(F)cc2)nc2ccc(F)cc12)Nc1cccc(C(=O)O)c1,4,4.2,-16,3,-5,3308,-7
CC(=O)Nc1cc(-c2ccc(F)cc2)[nH]n1,12,7.4,-13,16,7,3987,8
Cc1cc(C)c2sc(N(CCCN(C)C)C(=O)CN3C(=O)c4ccccc4C3=O)nc2c1,7,-1.1,-10,9,13,4812,8
O=C1c2ccccc2C(=O)N1CC(=O)N1c2ccccc2Sc2ccc(C(F)(F)F)cc21,2,3.4,-16,6,3,2010,0
CCCCN(CC(=O)NC1CCCC1)C(=O)C(=O)Nc1ccc2c(c1)OCCO2,-4,3.4,-14,7,5,5169,18
